# NPYLR7 ag = mosquito NPYLR7 agonism | activation, % at 10 µM | 270,000 tested, 0.15% active | HEK293T NPYLR7/Galpha15, GCaMP6s calcium fluorescence | AID 1259423; in the data active means activation above about 40%;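 further: 0% = vehicle and 100% = reference agonist at the receptor; some compounds past the cut are filed as inactive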
# NPYLR7 ag max-min = also measured in NPYLR7 ag; calls as there; activation, %; measured here: Max-Min RFU normalised activation; some inactives read as strong as hits;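 span of the calcium signal over five minutes; 0% = vehicle and 100% = native peptide agonist; compound fluorescence can raise it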
# Numbers without * were called inactive; & = joins results of further samples. An excerpt; rates above refer to the full screens.
SMILES,NPYLR7 ag,NPYLR7 ag max-min
O=C(COC(=O)C12CC3CC(CC(C3)C1)C2)NCC(F)(F)F,-5,-6
CCn1c2ccccc2c2cc(Nc3cc(-c4cccc5ccccc45)ncn3)ccc21,-4,-3
O=C(CN1CN(c2ccccc2)C2(CCN(C(=O)Nc3cccc(C(F)(F)F)c3)CC2)C1=O)Nc1cccc(Cl)c1,-7,-7
COc1cc(NC(=O)c2cc(-c3ccc(C)s3)nc3onc(C)c23)cc(OC)c1,16,22
CC1c2ccccc2C(=S)N1c1ccccc1 (stereo not given),-2,-3
CC1(C)CC(=O)C=C(NNc2nc3ccccc3o2)C1,-2,-3
CC1CCCC(C)N1CCNc1ccc2c(-c3ccccc3F)noc2n1 (stereo not given),3,0
Cc1c(C(=O)Nc2cccc(CS(N)(=O)=O)c2)[nH]c2c1C(=O)CCC2,-6,-6
O=C(c1cc(Cl)ccc1[N+](=O)[O-])N(Cc1cccnc1)c1nc2c(F)cccc2s1,-13,-14
CCCc1[nH]n(-c2ccccc2)c(=O)c1C1=C(N2CCN(CC)CC2)C(=O)N(Cc2ccccc2)C1=O,-10&-17,-4&-20
Cc1nc(N2CCC(C(=O)N3CCCCC3c3nccn3C)CC2)nc2ccc(C(C)C)cc12 (stereo not given),4,-3
Cc1cc(C(=O)N2CCCC(O)(CO)CC2)c(-c2ccccc2)o1 (stereo not given),8,2
CCCCN(C=O)c1c(CC)nc2ccc(C(=O)N3CCCCC3)cn12,5,-3
COCCCN(Cc1c(-c2ccccc2)noc1N1CCCCC1C)C(=O)C1CC1 (stereo not given),-4,14
CCOC(=O)c1cnc(-c2cccnc2)nc1N(C)CCc1ccccc1,-2,1
C=CCn1c(C)cn2c3c(=O)n(Cc4cccc(Cl)c4)c(=O)n(C)c3nc12,8,8
COc1ccccc1/C(C)=C/C(=O)NCCc1ncn[nH]1,7,4
COCc1noc(-c2nn(-c3ccccc3F)c3c2CCC3)n1,2,-1
CC(=O)c1cccc(-n2c(=O)c3ccccc3n(CC(=O)NCCN3CCCC3)c2=O)c1,3,8
Cn1nc(C2CCN(c3ccc(C(N)=O)cn3)CC2)n(Cc2ccccc2)c1=O,11,7
Cc1nc2ccc(NC(=O)c3ccccn3)cc2c(=O)n1-c1ccc(Cl)cc1,-7,-7
Cc1c(C#N)c(NC(=O)CSc2nncn2C2CC2)n(C2CCCC2)c1C,-7,-10
CCCN(Cc1c(C)nn(-c2ccccc2)c1Oc1cccc(OC)c1)CC(O)COC (stereo not given),-1,5
O=C(C[C@@H]1O[C@H](CNCc2cccc(Cl)c2)[C@@H](O)[C@H]1O)NCc1ccc(F)cc1,-15,-20
CCCNc1nc2c(C)cccn2c(=O)c1C=C1SC(=S)N(CCc2ccccc2)C1=O,2,2
COc1cc2c(cc1OC)C(CNC(=O)c1ccc(Cl)cc1)N(C(=O)Nc1ccccc1)CC2 (stereo not given),5,13
COc1ccccc1OC1CN(C(=O)c2cn3ccsc3n2)C1,10,7
Cc1ccc(OCC(N)=O)c(-c2ccc(C(C)N3CCOCC3)cc2)c1 (stereo not given),21,15
CC1CN(C(=O)CC(N)c2ccccc2)CC(C)O1 (stereo not given),-2&2,-2&-8
CCn1cc(C(CC(=O)NCCN2CCCC2)c2ccc3c(c2)OCO3)c2ccccc21 (stereo not given),3,6
CC(=O)C12C3C4C(C5C1C3C5(Br)C41OCCO1)C21OCCO1 (stereo not given),-5,-5
O=C(NCc1ccco1)c1cnn(-c2ccccc2)c1C(F)(F)F,22,20
CC(C)Oc1ccc(F)cc1NC(=O)C(=O)NC(C)c1nncn1C (stereo not given),9,7
NC(=O)c1ccccc1NC(=O)C1CCN(c2ccc(-c3ccco3)nn2)CC1,-7,-13
O=C(Cc1ccc(F)cc1)OCc1cc(-c2ccc3c(c2)OCO3)on1,-3,-3
COc1ccc(F)c(-c2cnc(-n3cnnc3)cc2C)c1,4,4

# 16 entries from above, as tab-separated lines.
SMILES	NPYLR7 ag	NPYLR7 ag max-min
Cc1nc2ccc(NC(=O)c3ccccn3)cc2c(=O)n1-c1ccc(Cl)cc1	-7	-7
Cc1c(C#N)c(NC(=O)CSc2nncn2C2CC2)n(C2CCCC2)c1C	-7	-10
CCCN(Cc1c(C)nn(-c2ccccc2)c1Oc1cccc(OC)c1)CC(O)COC (stereo not given)	-1	5
O=C(C[C@@H]1O[C@H](CNCc2cccc(Cl)c2)[C@@H](O)[C@H]1O)NCc1ccc(F)cc1	-15	-20
CCCNc1nc2c(C)cccn2c(=O)c1C=C1SC(=S)N(CCc2ccccc2)C1=O	2	2
COc1cc2c(cc1OC)C(CNC(=O)c1ccc(Cl)cc1)N(C(=O)Nc1ccccc1)CC2 (stereo not given)	5	13
COc1ccccc1OC1CN(C(=O)c2cn3ccsc3n2)C1	10	7
Cc1ccc(OCC(N)=O)c(-c2ccc(C(C)N3CCOCC3)cc2)c1 (stereo not given)	21	15
CC1CN(C(=O)CC(N)c2ccccc2)CC(C)O1 (stereo not given)	-2&2	-2&-8
CCn1cc(C(CC(=O)NCCN2CCCC2)c2ccc3c(c2)OCO3)c2ccccc21 (stereo not given)	3	6
CC(=O)C12C3C4C(C5C1C3C5(Br)C41OCCO1)C21OCCO1 (stereo not given)	-5	-5
O=C(NCc1ccco1)c1cnn(-c2ccccc2)c1C(F)(F)F	22	20
CC(C)Oc1ccc(F)cc1NC(=O)C(=O)NC(C)c1nncn1C (stereo not given)	9	7
NC(=O)c1ccccc1NC(=O)C1CCN(c2ccc(-c3ccco3)nn2)CC1	-7	-13
O=C(Cc1ccc(F)cc1)OCc1cc(-c2ccc3c(c2)OCO3)on1	-3	-3
COc1ccc(F)c(-c2cnc(-n3cnnc3)cc2C)c1	4	4

# (cont.)
SMILES,NPYLR7 ag,NPYLR7 ag max-min
c1ccc(-c2noc(CN3CCC(C4CCCCC4)C3)n2)nc1 (stereo not given),11,1
CCCCN(CC(=O)N1c2ccccc2-n2cccc2C1c1ccco1)C(=O)Nc1c(C(C)C)cccc1C(C)C (stereo not given),-1,10
CCCOCCN1CCC2(CC1)c1ccccc1CC2O (stereo not given),0,-1
OC(CN1CCOCC1)Cn1c2ccc(Br)cc2c2cc(Br)ccc21 (stereo not given),2,25
CC(=O)c1cccc(S(=O)(=O)NC(CC(=O)O)c2ccc(F)cc2)c1 (stereo not given),8,3
CCN(CC)S(=O)(=O)c1ccc(Cl)c(C(=O)Nc2ccccc2OC)c1,-5,-12
Cc1cc(C)c(C)c(S(=O)(=O)Nc2ccccc2C(=O)NCc2ccco2)c1C,4,9
CCOC(=O)N1CCN(Cc2ccc3c(c2)CN(C(=O)Cn2cnc4ccccc42)CCO3)CC1,17,4
Cc1cc(Cl)c(Cl)cc1S(=O)(=O)NCc1ccc2c(c1)OCO2,8,2
CC(N)c1nnc(SCc2ccc(F)cc2)n1-c1ccc([N+](=O)[O-])cc1 (stereo not given),11,8
O=C1NCCN(CCc2ccccc2)C1CC(=O)N1CCC(N2CCOCC2)CC1 (stereo not given),15,5
COCCCN(CC(=O)N(CCc1ccc(OC)c(OC)c1)Cc1sccc1C)C(=O)c1ccc(Br)cc1,35,36
CC(NC(=O)Cc1csc(-c2ccsc2)n1)c1ccccc1Cl (stereo not given),13,15
O=C1CC2(CCCC2)CN1[C@@H]1c2ccccc2C2(CCNCC2)[C@H]1O,17,16
CC1(C)CC(NS(=O)(=O)c2ccc(I)cc2)CC(C)(C)N1,3,1
O=C(c1cc2n(n1)CCN(Cc1cccc(F)c1)C2=O)N1CCN(c2ccccc2F)CC1,10,15
Cc1ccc(C(=O)Nc2ccc(NC(=O)CCN3CCCO3)cc2)o1,-3,-4
Cc1cccc(Cc2c(C)nc(C)nc2N2CCN(S(=O)(=O)c3ccc(Br)cc3)CC2)c1,5,16
COc1ccc(-n2nnnc2CNS(=O)(=O)c2ccc(OC)cc2)cc1,4,1
COc1cc(CN2CCN(CC=C(C)C)C(CCO)C2)ccc1O (stereo not given),4,-1
CC1=C(CC(=O)O)c2cc(F)ccc2/C1=C\c1ccc(S(C)=O)cc1 (stereo not given),-8&-12&-5&1,-16&-21&-8&-1
O=C(Nc1cccc(NS(=O)(=O)c2cccc(Cl)c2)c1)c1ccco1,8,6
CCC(C(=O)N1CCC2(CC1)C(=O)N(CC(=O)NC1CCCCC1)CN2c1ccccc1)c1ccccc1 (stereo not given),16,24
Fc1ccc(OC2OCCOC2Oc2ccc(F)cc2)cc1 (stereo not given),-1,-4
O=C(c1cccs1)N1N=C(c2cccs2)CC1c1ccco1 (stereo not given),-6,-4
CCC(C)N(Cc1csc(COc2ccc(C)c(C)c2)n1)C(=O)c1ccccc1F (stereo not given),3,5
CCCN(CC(=O)Nc1cc(-c2ccccc2)nn1-c1ccc(Cl)cc1)C(=O)Nc1ccc(C)c(C)c1,-3,-1
O=C(c1ccc([N+](=O)[O-])s1)N(Cc1cccnc1)c1nc2ccc(Cl)cc2s1,-12,-5
CC(=O)NC(c1ccc(F)c(F)c1)c1nc(-c2cccc(C(=O)O)c2)cs1 (stereo not given),5,0
CC1(C(=O)O)OCC2(CO1)COC(C)(C(=O)O)OC2 (stereo not given),-6,-9
NC(=O)Cc1csc(NC(=O)c2ccc[nH]c2=O)n1,1,5
COc1cccc2c1OCCCN(C1CCCNC1)C2 (stereo not given),3,-1
Cc1cc(C(=O)N2CCC(C)CC2)cc(S(=O)(=O)N2CCC(C)CC2)c1C,3,0
C=CCNC(=O)CN1CN(c2ccccc2)C2(CCN(C(=O)Nc3ccc(Cl)c(Cl)c3)CC2)C1=O,20,30
CC(C)c1ccc(NC2CCCN(C(=O)C3CCN(C(=O)N(C)C)CC3)C2)cc1 (stereo not given),9,8
O=C(Nc1nccs1)c1cc(S(=O)(=O)N2CCOCC2)c(Cl)cc1Cl,-9,-17
O=C1CSC(c2ccc3c(c2)OCO3)N1c1ccc(F)cc1 (stereo not given),4,7
CN(c1ncccc1CNc1nc(Nc2ccc3c(c2)CC(=O)N3)ncc1C(F)(F)F)S(C)(=O)=O,0&-2&-10,-6&-9&-13
OCc1ccc(CN2CCC(c3ccnc(-c4cccnc4)c3)C2)o1 (stereo not given),-2,-4
COc1c(S(=O)(=O)NCc2ccc3c(c2)OCO3)ccc(Cl)c1Cl,-1,-6
CC(C)C1CN(C(=O)c2cnn(C)c2)CCCN1CC1CC1 (stereo not given),4,1
CCCCc1ccc(S(=O)(=O)c2cnc(SCC(=O)NCc3ccc(C)cc3)[nH]c2=O)cc1,-1,-7
O=C(O)C(Sc1cc(Cl)ccc1Cl)c1ccccc1 (stereo not given),1,-3
CC1CCc2c(sc(NC(=O)c3ccno3)c2-c2nc3ccccc3s2)C1 (stereo not given),-3,-9
CCCc1c(C(=O)NCc2ccco2)cnn1-c1cccc(F)c1,11,17
COCc1noc(-c2cccc3c2ccn3C)n1,1,2
Cc1c(NC(=O)C(C)(C)Cc2cccc(Cl)c2)cccc1C(N)=O,1,7
COC(=O)CCn1cc(CN2CCCN(c3ccc(F)cc3)CC2)cn1,-1,-1
CCOc1ccc(NC(=O)CC(NCC2CCCO2)C(=O)O)c([N+](=O)[O-])c1 (stereo not given),-1,6
COc1ccc(CCN(C)c2cc(Cl)nc(SCc3cccc(C(=O)NCCN4CCOCC4)c3)n2)cc1OC,-7,-4
COC(=O)C1=C(C)NC(C)=C(C(=O)OC)C1c1ccccc1[N+](=O)[O-],14&-7&-8&1&0,9&-18&-12&-15&-5
Cc1ccc(-n2nc3c(c2NC(=O)/C=C\c2ccc4c(c2)OCO4)CS(=O)(=O)C3)c(C)c1,2,0
COc1ccc(CC(=O)N(CC(=O)N(Cc2ccc(F)cc2)Cc2cccs2)C2CCCCC2)cc1,-8,-2
CC(C)(C)c1ccc(C(=O)NCc2nnnn2-c2ccc(F)c(F)c2)cc1,2,0
Cc1ccc(S(=O)(=O)NC2CCN(c3ccccc3C(=O)N(C)C3CCCCC3)CC2)cc1,1,2
CC(CC1CC(C)(C)OC1=O)C(=O)Nc1nncs1 (stereo not given),24,17
COc1ccc(CN2CCN(Cc3cnc(-c4cccc(C)c4)nc3)CC2CCO)c(F)c1 (stereo not given),8,4
O=S1(=O)CCC(NCc2cc(Cl)c3c(c2)OCCCO3)C1 (stereo not given),-1,-3
CCCCN(CC(=O)N1c2ccccc2-n2cccc2C1c1ccc(F)cc1)C(=O)COCc1ccccc1 (stereo not given),1,14
CC(C)(C)c1cc(NC(=O)c2cccc(C#N)c2)n(-c2ccccc2Cl)n1,3,1

# Next section.
SMILES,NPYLR7 ag,NPYLR7 ag max-min
CCCc1ccccc1N1C(=O)CSC1c1cccc(NC(=O)c2ccc(Cl)c(Cl)c2)c1 (stereo not given),15,20
NC(=O)c1cnc(NC(=O)c2ccc(Cl)c(Cl)c2)s1,1,0
O=C(Cn1cnc([N+](=O)[O-])n1)Nc1ccc([N+](=O)[O-])cc1Cl,-3,-8
CCOC(=O)C1CCN(C(c2ccccc2)C2Sc3ncnn3C2=O)CC1 (stereo not given),5,7
C[C@]12CCC3=C4CCC(=O)C=C4CC[C@H]3[C@@H]1CC[C@@]2(O)CC#N,2,0
COc1ccc2cc(C(=O)C3CCCN(C(=O)Cn4cnnn4)C3)ccc2c1 (stereo not given),17,2
CC1(C)C(=O)OC(c2ccc(Cl)cc2Cl)C(C)(C)C1=O (stereo not given),-15,-20
CC(C)CSc1nnc(SC(C)C(=O)Nc2ccc(F)cc2)s1 (stereo not given),19,8
Cn1c(=O)c2c(NCCCn3ccnc3)ccnc2n(C)c1=O,8,6
C=CCOC(=O)C1C(C)=Nc2nc(SCCCC)[nH]c(=O)c2C1c1ccc(C(=O)OC)cc1 (stereo not given),4,2
O=C1N=C(N2CCCCC2)SC1=Cc1ccc(-c2ccccc2)o1,1,-3
Cc1oc(-c2cccs2)nc1CN(C)CC1COc2ccccc2O1 (stereo not given),20&-6,7&-12
COCCNC(=O)c1ccccc1N1CCC(NC(=O)c2ccc3c(c2)OCO3)CC1,27,32
Cc1cc(C)n(-c2nc(-c3ccccc3)cc(=O)n2CC(=O)N(C)c2ccccc2)n1,1,6
CCONC(=O)CCc1nc2cc(C(F)(F)F)ccc2s1,5,-1
O=C(Nn1ccc2c(nnc3ccnn32)c1=O)c1cccnc1,3,3
O=C(NCCNc1cccnc1)C(=O)N1CCc2ccccc2C1,13,10
